# Ecoli rRNA inh: inhibits bacterial ribosomal RNA function over humanized ribosomes. E. coli WT GFP vs humanized-ribosome RFP mutants, fluorescence, 24 h; hits give low values; DMSO median 0, no signal -100. GFP signal change (wild-type ribosome), % (no concentration beside the values). 1.6% of 350,000 active. AID 720706;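 active = significant combined selectivity score with lowered wild-type GFP, culture density cut under 30%, mutant RFP and density less affected; inactive = any of these conditions unmet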; also: one replicate is shown; some compounds called inactive have numbers as strong as hits
# ALR inh: inhibitors of human sulfhydryl oxidase ALR. AID 485317. P55789. 3.8% of 290,000 active. inhibition, % (no concentration beside the values). purified ALR, DTT oxidation, H2O2 HRP-luminol luminescence;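 active = mean and each replicate at 75% or more; inconclusive = only one of the two met; inactive = neither met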;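 also: stock transfer was 7.5 nL into about 7.5 µL; 0% = neutral wells and 100% = wells with inactivated enzyme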
# Target sequence (P55789 whole entry, looked up): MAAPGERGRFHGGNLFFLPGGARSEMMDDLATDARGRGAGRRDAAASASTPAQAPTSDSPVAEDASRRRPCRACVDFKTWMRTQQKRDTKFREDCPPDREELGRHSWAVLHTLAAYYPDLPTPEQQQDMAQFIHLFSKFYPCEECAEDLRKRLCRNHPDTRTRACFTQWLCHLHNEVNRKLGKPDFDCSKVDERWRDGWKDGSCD
# FGF22 binding: shifts melting point of recombinant human FGF22; Q9HCT0; recombinant FGF22 thermal shift, SYPRO orange fluorescence; percent of sucrose octasulfate shift, DMSO zero; calls only at 9.99 µM; 1.5% of 340,000 active; AID 651658;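 active = melting point raised past a set limit in the mean and every replicate; inconclusive = no clear call; three in four hits are not shown here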
# Target sequence (Q9HCT0 whole entry, looked up): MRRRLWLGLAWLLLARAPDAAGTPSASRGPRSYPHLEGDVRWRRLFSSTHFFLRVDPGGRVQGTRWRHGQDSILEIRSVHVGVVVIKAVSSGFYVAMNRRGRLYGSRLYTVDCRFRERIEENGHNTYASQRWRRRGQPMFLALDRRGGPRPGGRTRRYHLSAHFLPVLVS
# Beta2AR agonist: agonists of human beta-2 adrenergic receptor inducing internalization | response, % (test concentration not listed) | P07550 | 0.43% of 340,000 active | Am2.2-beta2AR cells, FAP receptor internalization, flow cytometry; reference of the scale not given here;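 active = response above a set limit, near 3 SD of response in nonfluorescent compounds, cut at about 42% in these data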;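 also: stock transfer was 100 nL into about 11 µL; a reference agonist was the positive control; negative values mostly stem from fluorescent compounds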
# E coli growth: E. coli growth inhibition | Escherichia coli growth, OD600, 23 h; hits give low values | OD600 absorbance (no concentration beside the values) | 0.21% of 330,000 active;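 active = OD600 absorbance below the run mean of sample wells minus 3.6 SD, in any replicate, cut at about 0.56 in these data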;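 also: stock transfer was 300 nL into about 60 µL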
# UCH37 inh: human UCH37 deubiquitinating enzyme inhibition. Q9Y5K5. purified proteasome/UCH37, Ub-AMC cleavage fluorescence. inhibition, % (concentration not given with the values). 0.33% of 330,000 active. AID 588478;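 active = mean of two replicates above 20%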;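 also: 0% = compound-free wells with enzyme and 100% = wells lacking proteasome; stock transfer was 100 nL into about 20 µL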
# Target sequence (Q9Y5K5 whole entry, looked up): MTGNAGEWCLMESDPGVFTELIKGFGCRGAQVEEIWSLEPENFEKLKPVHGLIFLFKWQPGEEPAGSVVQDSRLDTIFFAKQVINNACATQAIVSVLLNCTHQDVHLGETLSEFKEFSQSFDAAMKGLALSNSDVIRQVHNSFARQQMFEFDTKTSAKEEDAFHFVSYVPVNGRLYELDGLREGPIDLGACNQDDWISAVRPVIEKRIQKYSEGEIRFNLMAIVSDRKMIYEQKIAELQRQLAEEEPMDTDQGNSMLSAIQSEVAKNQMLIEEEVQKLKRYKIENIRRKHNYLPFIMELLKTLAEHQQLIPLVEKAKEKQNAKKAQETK
#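 assay system = human UCH37 enzyme supplied as purified proteasome complex | amount = proteasome at 0.15 nM in the dispensed enzyme solution | schedule = 30 min compound-proteasome preincubation then 25 min substrate reaction, room temperature | measured by = fluorescence, ex 355 nm, em 460 nm | benchmarks = no-proteasome wells (full inhibition) and compound-free wells (no inhibition)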
# HNF4A DNA FP: change in binding of human HNF4 alpha to DNA | P41235 | 0.3% of 360,000 active | activity change, % at 10 µM | HNF4a-FITC DNA binding, fluorescence polarization, 1 h | AID 1224865; in the data active = activity change above about 30%, passing the limit was not always enough;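 also: controls were the assay level and a saturating level of protein; the project sought stronger binding though the title names inhibitors; some compounds called inactive have numbers as strong as hits; positive values seem to mean higher polarization but the record does not say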
# Ecoli rRNA inh OD600: also measured in Ecoli rRNA inh; calls as there; OD600 change, %; measured here: OD600 growth;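 optical density of the mix in the first replicate; 0 = DMSO median and -100 = no signal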
# Ecoli rRNA inh RFP: further read-out of Ecoli rRNA inh, marked with its call; RFP signal change, %; measured here: RFP humanized mutant strains;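 first replicate; 0 = DMSO median and -100 = no signal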
# * hit, by the source's call; i = inactive; ? = inconclusive; / = not tested or not shown; & = joins results of further samples. Not all compounds are listed; rates above refer to the full screens.
SMILES,Ecoli rRNA inh,Ecoli rRNA inh OD600,Ecoli rRNA inh RFP,ALR inh,FGF22 binding,Beta2AR agonist,E coli growth,UCH37 inh,HNF4A DNA FP
Cc1noc(C)c1CN(C(=S)NC1CC1)c1ccccc1,/,/,/,5,i,-2,0.74,0.8,0.4
COc1ccc(-c2nc(CN3CCN(Cc4ccccc4)CC3)c(C)o2)cc1,-3,-5,-1.1,-4,i,-20,0.67,-1.9,0.1
COc1ccc(NC(=O)Nc2ccc3[nH]ccc3c2)cc1,6,3,-0.8,-21,i,3,0.67,1.1,1.3
COC(=O)[C@]12CCCCC=C1N(Cc1ccccc1)C(=O)[C@H](CC(=O)NCc1cccc3ccccc13)C2,3,10,3.4,/,i,/,/,/,5.4
CCCc1cc(=O)[nH]c(SCC(=O)NC(=O)c2ccccc2)n1,21,13,-4.8,-2,i,-4,0.62,0.4,2.8
Cc1ccc2nc(-c3ccc(O)c(O)c3)cn2c1,-11,-14,-7.2,99*,i,-3,/,/,-4.5
O=C(Nc1ccc(OC(F)F)cc1)c1ccccn1,9,-13,-0.6,-4,i,0,/,/,1.7
CC(=O)Oc1ccc2c(C)c(CC(=O)N3CCN(C(=O)C4COc5ccccc5O4)CC3)c(=O)oc2c1C (stereo unspecified),1,-6,-4.5,-1,i,2,0.62,-454,-1.0
CC1(C)CC(=O)C2=C(C1)Nc1ccccc1NC2c1nc2ccccc2[nH]1 (stereo unspecified),60,10,7.4,98*,i,-1,0.72,13,0.3
CC1CCN(S(=O)(=O)c2ccc3c(c2)N(CC(=O)NCCCN2CCCC(C)C2)C(=O)CS3)CC1 (stereo unspecified),3,-4,3.2,7,i,-4,0.68,2.8,-11
O=Cc1ccc(C(=O)OCC(=O)Nc2ccc(F)cc2F)cc1,9,15,-2.9,-1,i,-1,0.64,3.1,0.7
COc1ccc2c(CC(=O)OCC(=O)NC(=O)c3cccn3C)coc2c1,/,/,/,-19,/,5,0.78,2.1,1.7
CC1(C(=O)NS(=O)(=O)c2cccs2)CCN1C(=O)CC1CC1 (stereo unspecified),12,11,0.4,/,i,/,/,/,-4.2
COc1ccc(S(=O)(=O)Cc2ccc(C(=O)N3CCN(Cc4ccccc4)CC3)o2)cc1,-1,-5,-8.8,?,i,-3,0.74,-0.4,3.2
COc1ccc(-c2cc3ccc(OCC(=O)NCC4CCC(C(=O)O)CC4)cc3oc2=O)cc1 (stereo unspecified),/,/,/,0,i,9,0.71,i,2.5
CCOc1ccc(-n2c(SCC(=O)Nc3ccccc3CC)nc3n[nH]c(C)c3c2=N)cc1,10,16,0.0,-16,i,/,0.7,1.2,/
C[C@H]1CN([C@@H](C)CO)C(=O)c2cc(-c3cccc(C#N)c3)cnc2O[C@H]1CN(C)C(=O)c1ccccn1,19&6,10&4,1.5&-1.6,/,i,/,/,/,-0.4
O=C1CCC[C@@H]2Cc3nc4ccc(Cl)cc4cc3[C@@H]3CCN1[C@H]23,-8,-4,1.4,/,i,-7,/,/,2.9
C[C@@H]1CN([C@H](C)CO)C(=O)CCCn2cc(nn2)CO[C@H]1CN(C)S(=O)(=O)c1ccccc1F,0&13,2&13,0.6&-1.2,/,i,/,/,/,1.5
Cc1cccc(NC(=O)CC23CC4CC(C2)CC(n2nnc(C)n2)(C4)C3)c1,-23*,-13*,-0.2*,-3,i,0,0.72,4.9,2.5
CC(C)[C@H](NC(=O)c1ccccc1)C(=O)OCC(=O)N1CCCc2ccccc21,5,-2,0.0,-2,i,9,/,0.6,-1.1
Cc1oc(-c2cccc(Cl)c2)nc1CN1CCC(C(=O)N2CCN(c3ccccn3)CC2)CC1,/,/,/,-5,/,-1,0.7,-1.2,-2.5
O=C(CNC(=O)c1ccc([N+](=O)[O-])cc1)N/N=C/c1c[nH]c2ccccc12,1,4,-2.0,-2,i,4,/,/,0.4
Cc1ccsc1C(=O)OCC(=O)NCc1ccc(Cl)cc1,8,12,-0.1,4,i,-4,0.67,0.6,-1.9
COC(=O)CCSc1nc(N2CCOCC2)c2c(c1C#N)CC(C)(C)OC2,-2,9,-4.4,-7,i,4,0.61,-0.5,-0.7
NS(=O)(=O)c1ccc(CNC(=O)Cc2ccc(S(=O)(=O)N3CCOCC3)s2)cc1,14,11,3.4,/,i,-4,0.65,0.8,-0.6
Cc1ccc(C(=O)NCCC(=O)NCc2ccco2)cc1,7,18,0.2,-1,i,-2,0.71,-0.6,-0.4
COc1ccc(OC)c(S(=O)(=O)N2CCC(C(=O)N3CCCC3)CC2)c1,3,13,0.9,2,i,1,0.72,2.4,-3.4
COc1cc(C)ccc1S(=O)(=O)NC(=O)C1(C)CCN1C(=O)COc1ccc(Cl)cc1 (stereo unspecified),12,7,0.1,/,i,/,/,/,-0.2
O=C(C(Cl)Cl)N1CCN(Cc2ccc3c(c2)OCO3)CC1,7,3,-0.2,-3,i,10,0.68,0.7,2.8

# Rewritten with values under each structure: 11 of the compounds above.
# Each structure is followed by: Ecoli rRNA inh | Ecoli rRNA inh OD600 | Ecoli rRNA inh RFP | ALR inh | FGF22 binding | Beta2AR agonist | E coli growth | UCH37 inh | HNF4A DNA FP
Cc1cccc(NC(=O)CC23CC4CC(C2)CC(n2nnc(C)n2)(C4)C3)c1
  -23* | -13* | -0.2* | -3 | i | 0 | 0.72 | 4.9 | 2.5
CC(C)[C@H](NC(=O)c1ccccc1)C(=O)OCC(=O)N1CCCc2ccccc21
  5 | -2 | 0.0 | -2 | i | 9 | / | 0.6 | -1.1
Cc1oc(-c2cccc(Cl)c2)nc1CN1CCC(C(=O)N2CCN(c3ccccn3)CC2)CC1
  / | / | / | -5 | / | -1 | 0.7 | -1.2 | -2.5
O=C(CNC(=O)c1ccc([N+](=O)[O-])cc1)N/N=C/c1c[nH]c2ccccc12
  1 | 4 | -2.0 | -2 | i | 4 | / | / | 0.4
Cc1ccsc1C(=O)OCC(=O)NCc1ccc(Cl)cc1
  8 | 12 | -0.1 | 4 | i | -4 | 0.67 | 0.6 | -1.9
COC(=O)CCSc1nc(N2CCOCC2)c2c(c1C#N)CC(C)(C)OC2
  -2 | 9 | -4.4 | -7 | i | 4 | 0.61 | -0.5 | -0.7
NS(=O)(=O)c1ccc(CNC(=O)Cc2ccc(S(=O)(=O)N3CCOCC3)s2)cc1
  14 | 11 | 3.4 | / | i | -4 | 0.65 | 0.8 | -0.6
Cc1ccc(C(=O)NCCC(=O)NCc2ccco2)cc1
  7 | 18 | 0.2 | -1 | i | -2 | 0.71 | -0.6 | -0.4
COc1ccc(OC)c(S(=O)(=O)N2CCC(C(=O)N3CCCC3)CC2)c1
  3 | 13 | 0.9 | 2 | i | 1 | 0.72 | 2.4 | -3.4
COc1cc(C)ccc1S(=O)(=O)NC(=O)C1(C)CCN1C(=O)COc1ccc(Cl)cc1 (stereo unspecified)
  12 | 7 | 0.1 | / | i | / | / | / | -0.2
O=C(C(Cl)Cl)N1CCN(Cc2ccc3c(c2)OCO3)CC1
  7 | 3 | -0.2 | -3 | i | 10 | 0.68 | 0.7 | 2.8

# Further entries follow:
SMILES,Ecoli rRNA inh,Ecoli rRNA inh OD600,Ecoli rRNA inh RFP,ALR inh,FGF22 binding,Beta2AR agonist,E coli growth,UCH37 inh,HNF4A DNA FP
Cc1cc(=O)oc2cc(OCC(=O)Nc3nnc(CC(C)C)s3)ccc12,/,/,/,-5,/,-8,0.76,-11,3.3
O=C(NN=C1CCCCCC1)c1cccnc1,9,13,-4.3,-5,i,7,0.74,1.4,-2.0
O=C1CC(/C=C/c2ccccc2)(C(=O)NC2CCCC2)N1c1ccc(S(=O)(=O)N2CCCC2)cc1 (stereo unspecified),15,22,2.0,-5,i,1,0.68,0.6,1.2
O=C(NCc1ccc(Cl)cc1)c1ccc(OCC2CCCO2)cc1 (stereo unspecified),8,3,-6.1,6,i,-15,0.65,4.3,-6.8
COc1ccc2[nH]cc(CCNC(=O)Cc3ccc(Cl)cc3)c2c1,-20,-11,-6.1,6,i,2,0.68,0.9,0.8
O=C(c1ccc(Cl)cc1)N1CCC(c2nc(-c3cccs3)no2)CC1,-48,-70,-17,-17,i,-14,0.62,1.6,0.3
CCn1c(=S)[nH]c2scc(-c3cccs3)c2c1=O,-20,-35,-7.3,/,i,11,0.67,7.5,6.0
O=C(COC(=O)c1cc(Br)ccc1O)c1ccc(F)cc1,19,15,1.6,-3,i,-2,0.69,0.2,0.6
CC1CCN(CCNC(=O)C2CCCN(c3ncnc4c3nc3n4CCCCC3)C2)CC1 (stereo unspecified),13,14,2.1,-4,i,-11,0.7,1.7,1.8
CC(C)(C#N)NC(=O)c1ccco1,/,/,/,5,/,-4,0.71,0.8,-1.6
COc1ccc(-n2c(C)cc(C(=O)NC3CCCCC3)c2C)cc1,-23*,-19*,-5.6*,7,i,2,0.65,4.2,-1.3
Cc1ccc(S(=O)(=O)CCc2nnc(NC(=O)c3ccco3)s2)cc1,/,/,/,-20,/,-6,0.7,7.6,3.5
CCOc1cc(CN2CCN(C(=O)c3cccc4ccccc34)CC2)ccc1OC,-15,-15,2.5,-5,i,-5,0.68,4.2,8.5
O=c1nccc(NCc2ccco2)[nH]1,/,/,/,-1,/,-9,0.69,-1.0,-1.1
CC1(C)Cc2c(c(N3CCOCC3)nc3sc(C(=O)Nc4ccc(Cl)cc4)c(N)c23)CO1,3,9,0.5,/,i,23,0.68,-309,1.6
Cc1ccc(-c2ocnc2C(=O)Nc2nc(C)cs2)cc1,7,4,1.7,1,i,-3,0.64,-38,-3.4
O=C(COC(=O)CNC(=O)C1CCCCC1)Nc1ccccc1Cl,7,10,11,6,i,5,0.69,5.4,3.7
CCN(CC)CCNc1oc(-c2ccccc2)nc1S(=O)(=O)c1ccccc1,/,/,/,21,i,5,0.71,3.0,2.1
CCCCCN1CC(O)=C(c2nc3ccccc3[nH]2)C1=N,6,20,-1.5,-4,i,-2,0.72,4.0,1.0
CC(=O)CSc1nnc(Cc2ccc([N+](=O)[O-])cc2)o1,/,/,/,/,/,-1,0.72,4.0,-1.9
CC(Oc1ccc(Cl)cc1)c1ccnn1S(=O)(=O)c1ccccc1 (stereo unspecified),/,/,/,-21,/,2,0.73,2.0,1.8
CCN(CC)S(=O)(=O)c1ccc(C)c(C(=O)Oc2cccc(-c3cnc4ccccc4n3)c2)c1,12,10,-2.3,-7,i,15,0.72,1.9,1.2
O=C(NCC1CCCO1)C1CCCN(S(=O)(=O)c2cc(Cl)ccc2Cl)C1 (stereo unspecified),-2,-5,-0.9,22,i,-15,0.68,0.3,4.2
CCOC(=O)N1CCN(C(=O)c2ccc3c(=O)n(-c4ccccc4F)c(=S)[nH]c3c2)CC1,-3,0,0.7,/,i,4,0.71,-14,1.1
Cc1ccc(S(=O)(=O)N(CC(=O)NCC2CCCO2)Cc2ccc(F)cc2)cc1 (stereo unspecified),1,9,0.6,-1,i,-3,0.66,2.0,-0.6
Cn1c(N)c(C(=O)COC(=O)Cc2ccc(F)cc2)c(=O)n(C)c1=O,3,5,-3.7,/,i,6,0.68,2.1,-3.9
O=C(CCNC(=O)c1ccc(Cl)cc1)NCC(c1ccco1)N1CCCC1 (stereo unspecified),4,5,-0.4,/,i,5,0.64,2.5,-0.4
O=C(NCc1ccccc1CN1CCCC1)c1cccc(S(=O)(=O)Nc2ccc(F)cc2)c1,3,1,4.1,-2,i,13,0.7,1.2,-3.3
Cc1cc(C)n(-c2ccc(C(=O)OCC(=O)Nc3ccccc3[N+](=O)[O-])cc2)n1,6,8,0.0,0,i,-9,0.69,2.7,4.0
O=C(Nc1ccc(Br)cc1Cl)c1cnccn1,13,4,-4.0,0,i,0,0.75,2.1,-1.3
